Vaccinia inh: blocks a specific stage of Vaccinia orthopoxvirus infection | activity change (mCherry), % (concentration not given with the values) | Vaccinia-infected cells, mCherry/Venus stage reporter fluorescence; hits give low values; some inactives read as strong as hits | 0.01% of 89,000 active;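 active = mCherry past -33% and 40 or more points under the early reporter, replicates agreeing; inconclusive = past -33% without that gap or agreement; tested in A549 cells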;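 also: scaled between vehicle wells and reference inhibitor wells; 23 nL library stock went into each well; one replicate is shown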
Vaccinia inh Venus: second read-out of Vaccinia inh, no call of its own (marks repeat the call); activity change (Venus), %; measured here: Venus reporter, other viral stage;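 negative = less Venus signal; first of two replicates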
Active calls of the source: *; ? = inconclusive; nt = no result given.

SMILES	Vaccinia inh	Vaccinia inh Venus
COc1ccc2c3c(n(C)c2c1)[C@H](CO)N(C(=O)C1CC1)CC31CCN(C(=O)Nc2cccc(F)c2)CC1	-29	-12
COc1ccccc1C#Cc1ccc2c(c1)[C@H]1[C@H](CCN1C(=O)CN1CCOCC1)[C@@H](CO)N2	5	8
C[C@H](CO)N1C[C@H](C)[C@H](CN(C)CC2CCCCC2)Oc2ccc(NS(=O)(=O)c3ccccc3)cc2C1=O	-10	-6
C/C(=N/NC(=O)C1CCCC1)c1ccc(NC(=O)C(F)(F)F)cc1	21	3
C[C@H](CO)N1C[C@H](C)[C@H](CN(C)C(=O)c2ccc(F)cc2)Oc2ncc(C#CC3CC3)cc2C1=O	-6	2
NC(=O)[C@@H]1[C@H]2C(=O)O[C@H](c3ccccc3)[C@H](c3ccccc3)N2[C@H](c2ccc(O)cc2)[C@@]12C(=O)Nc1ccc(C#CC3=CCCCC3)cc12	-20	-9
C[C@H](CO)N1C[C@H](C)[C@H](CN(C)C(=O)NC2CCCCC2)Oc2ccc(NS(=O)(=O)c3ccc(F)cc3)cc2C1=O	3	-1
O=C(C[C@@H]1CC[C@H]2[C@@H](COC[C@H](O)CN2Cc2cccc(F)c2)O1)NCc1cccc(F)c1	-8	-5
CC(C)C#Cc1ccc2c(c1)O[C@H](CN(C)S(C)(=O)=O)[C@@H](C)CN([C@@H](C)CO)S2(=O)=O	-16	-22
C[C@H](CO)N1C[C@H](C)[C@@H](CN(C)S(=O)(=O)c2ccccc2)OCc2ccccc2-c2c(n(C)c3ccccc23)C1=O	?	nt
C[C@@H]1CN([C@H](C)CO)C(=O)c2cc(NC(=O)Nc3ccc(C(F)(F)F)cc3)ccc2O[C@@H]1CN(C)Cc1ccccc1	?	nt
CN(C)C(=O)C[C@H]1C=C[C@@H](NS(=O)(=O)c2ccccc2)[C@H](CO)O1	-2	3
Cc1ccc(-c2cnc3c(c2)C(=O)N([C@@H](C)CO)C[C@H](C)[C@@H](CN(C)C(=O)c2ccncc2)O3)cc1	20	11
CC(C)NC(=O)N1CC(=O)N2[C@H](CO)[C@H](c3ccc(C#CCN(C)C)cc3)[C@H]2C1	15	8
C[C@@H]1CN([C@H](C)CO)C(=O)c2cc(NS(C)(=O)=O)ccc2O[C@H]1CN(C)Cc1ccc(C(=O)Nc2ccccc2N)cc1	0	1
Cc1noc(C)c1NC(=O)N(C)C[C@@H]1OCCCC[C@H](C)Oc2ccc(NC(=O)Nc3ccc(F)cc3)cc2C(=O)N([C@H](C)CO)C[C@@H]1C	16	12
CO[C@H]1CN(C)C(=O)c2cc(NS(C)(=O)=O)ccc2OC[C@@H](C)N(CC2CCCCC2)C[C@H]1C	0	9
CN(C)CC(=O)Nc1ccc2c(c1)[C@H]1C[C@@H](CC(=O)N3CCCCC3)O[C@@H](CO)[C@H]1O2	3	6
Cc1noc(C)c1NC(=O)Nc1cccc2c1O[C@H](CN(C)Cc1ccc(C(=O)Nc3ccccc3N)cc1)[C@@H](C)CN([C@@H](C)CO)C2=O	34	7
C[C@@H]1CN([C@@H](C)CO)C(=O)c2cc(NC(=O)Nc3ccccc3)ccc2O[C@H]1CN(C)S(=O)(=O)c1cn(C)cn1	8	7
CO[C@@H](CN(C)C(=O)c1cnccn1)[C@@H](C)CN([C@@H](C)CO)S(=O)(=O)c1ccccc1	6	7
CNC[C@@H]1Oc2ccc(NC(=O)Nc3c(C)noc3C)cc2C(=O)N([C@H](C)CO)C[C@@H]1C	21	10
CNC[C@H]1Oc2c(NS(=O)(=O)c3cn(C)cn3)cccc2C(=O)N([C@@H](C)CO)C[C@H]1C	10	19
C[C@H]1CN([C@@H](C)CO)C(=O)c2cc(-c3ccccc3)cnc2O[C@H]1CN(C)Cc1ccc(C(=O)O)cc1	10	2
C[C@@H]1CCCCO[C@@H](CN(C)Cc2ccc(C(=O)O)cc2)[C@@H](C)CN([C@@H](C)CO)C(=O)c2cc(NC(=O)C3CCCCC3)ccc2O1	24	8
Further records.
SMILES	Vaccinia inh	Vaccinia inh Venus
CCC(=O)Nc1ccc2c(c1)C(=O)N(C)[C@H]1CC[C@H](CC(=O)NCCOC)O[C@@H]1CO2	7	17
COc1ccc(-c2cnc3c(c2)C(=O)N([C@@H](C)CO)C[C@H](C)[C@H](CN(C)Cc2ccccn2)O3)cc1	5	-2
CCCNC(=O)N1CC2(C1)CN(Cc1ccccc1)[C@H](CO)c1[nH]c3cc(OC)ccc3c12	6	10
COc1ccc(NC(=O)N(C)C[C@H]2OCCCC[C@@H](C)Oc3ccc(NC(=O)C4CCCCC4)cc3C(=O)N([C@H](C)CO)C[C@H]2C)cc1	-18	-14
CC(C)NC(=O)Nc1cccc2c1O[C@H](CN(C)Cc1ccc(-c3ccccc3)cc1)[C@@H](C)CN([C@@H](C)CO)C2=O	-14	-3
CS(=O)(=O)Nc1ccc2c(c1)[C@@H]1C[C@@H](CC(=O)NCc3ccccc3)O[C@@H](CO)[C@@H]1O2	-2	-2
Cc1noc(C)c1NC(=O)N(C)C[C@H]1Oc2c(NS(=O)(=O)c3cccs3)cccc2C(=O)N([C@H](C)CO)C[C@H]1C	8	4
CC(=O)N1[C@H](CN(C(=O)c2ccc(F)cc2)C(C)C)[C@H](c2ccccc2)[C@@H]1CO	-1	2
COc1ccc(S(=O)(=O)N(C)C[C@@H]2Oc3ccc(NC(=O)Nc4ccccc4)cc3CC(=O)N([C@H](C)CO)C[C@@H]2C)cc1	-15	-19
O=C(Nc1ccc(F)cc1)N[C@@H]1CC[C@H](CCNC(=O)c2ccccc2F)O[C@H]1CO	4	-6
COc1ccc(S(=O)(=O)Nc2ccc3c(c2)C(=O)N([C@@H](C)CO)C[C@@H](C)[C@H](CN(C)Cc2ccccc2)O3)cc1	-1	-3
C[C@@H]1CN([C@H](C)CO)C(=O)c2cccc(NS(C)(=O)=O)c2O[C@@H]1CN(C)C(=O)Nc1cccc2ccccc12	13	17
CO[C@H]1CN(C)C(=O)c2ccc(NC(=O)C3CCCCC3)cc2OC[C@@H](C)NC[C@H]1C	0	-2
O=C(O)C[C@@H]1C[C@@H]2c3cc(NC(=O)Nc4ccc(F)cc4)ccc3O[C@@H]2[C@H](CO)O1	14	10
O=C(C[C@@H]1C[C@H]2c3cc(NC(=O)Nc4ccccc4)ccc3O[C@H]2[C@H](CO)O1)NCc1cccc(F)c1	10	-2
COCC(=O)N(C)C[C@@H]1Oc2cc(C#CC3CC3)ccc2S(=O)(=O)N([C@H](C)CO)C[C@@H]1C	5	1
C[C@@H]1CN([C@H](C)CO)C(=O)Cc2cc(NS(=O)(=O)c3cn(C)cn3)ccc2O[C@H]1CN(C)Cc1ccccc1	7	2
C[C@H](CO)N1C[C@H](C)[C@H](CN(C)C(=O)c2ccccc2)OCCCC[C@H](C)Oc2ccc(N(C)C)cc2C1=O	-16	-4
CC=Cc1ccc2n(c1=O)C[C@@H]1[C@@H](CO)[C@H](C(=O)NCCc3ccccc3)N(C(=O)CC)[C@H]21 (mixture of isomers)	-6	-6
C[C@@H]1CN([C@@H](C)CO)C(=O)c2cc(NC(=O)C3CC3)ccc2O[C@H]1CN(C)S(=O)(=O)c1ccccc1	25	14
C[C@H](CO)N1C[C@H](C)[C@H](CN(C)C(=O)C2CC2)Oc2ncc(C#Cc3ccccc3)cc2C1=O	0	0
CC(C)(C)[S@@](=O)N1Cc2cc(C(=O)NCCc3ccncc3)nc(-c3cccc(-c4ccncc4)c3)c2[C@H]1CCO	3	1
C[C@H](CO)N1C[C@H](C)[C@@H](CN(C)C(=O)C2CCCCC2)OCCCC[C@H](C)Oc2ccc(NC(=O)c3ccccc3)cc2C1=O	-9	-20
Cc1noc(C)c1NC(=O)N(C)C[C@@H]1Oc2cc(C#CCN(C)C)ccc2S(=O)(=O)N([C@@H](C)CO)C[C@@H]1C	24	1
O=C(NCC[C@H]1CC[C@H](NS(=O)(=O)c2cccc(F)c2)[C@H](CO)O1)C1CCOCC1	-2	-1
Next part
SMILES	Vaccinia inh	Vaccinia inh Venus
CN(C)c1ccc2c(c1)[C@@H]1C[C@@H](CC(=O)NC3CCCC3)O[C@H](CO)[C@@H]1O2	7	20
CCCNC(=O)C[C@@H]1CC[C@H]2[C@@H](COC[C@H](O)CN2C(=O)Nc2ccccc2OC)O1	-4	-4
CCC(=O)N1[C@H](C(=O)OC)[C@@H](CO)[C@@H]2Cn3c(ccc(/C=C/c4ccccc4)c3=O)[C@@H]21	3	-1
CO[C@H]1CN(C)C(=O)c2cc(NS(C)(=O)=O)ccc2OC[C@H](C)N(CC2CCCCC2)C[C@H]1C	4	0
C[C@H](O)C#Cc1ccc2c(c1)O[C@H](CN(C)C(=O)Cc1ccccn1)[C@@H](C)CN([C@H](C)CO)S2(=O)=O	15	4
C[C@@H]1CCCCO[C@@H](CN(C)S(=O)(=O)c2ccccc2)[C@@H](C)CN([C@H](C)CO)C(=O)c2cc(NC(=O)Nc3cccc4ccccc34)ccc2O1	36	19
O=C(CN1CCOCC1)NCC[C@H]1CC[C@@H](NC(=O)Nc2ccc(F)cc2)[C@@H](CO)O1	22	6
N#C[C@@H]1[C@@H](c2ccc(-c3ccncc3)cc2)[C@@H](CO)N1C(=O)C1CCC1	15	5
COc1ccc(C#Cc2ccc3c(c2)[C@]2(C(=O)N3)[C@H](c3ccc(OCCO)cc3)N3[C@H](c4ccccc4)[C@H](c4ccccc4)OC(=O)[C@H]3[C@@H]2C(=O)N2CCc3cc(OC)c(OC)cc3C2)cc1	-5	0
C[C@H](CO)N1C[C@H](C)[C@H](CN(C)S(C)(=O)=O)Oc2cc(C3=CCCCC3)ccc2S1(=O)=O	-24	-12
CNC[C@H]1Oc2c(NC(=O)c3cc(C)nn3C)cccc2C(=O)N([C@@H](C)CO)C[C@@H]1C	19	9
C[C@H](CO)N1C[C@H](C)[C@@H](CN(C)S(=O)(=O)c2ccccc2)Oc2cc(-c3cccc(F)c3)ccc2S1(=O)=O	?	nt
CN(C)C(=O)C[C@H]1C=C[C@H](NC(=O)NC2CCCCC2)[C@@H](CO)O1	-1	12
C[C@H](O)C#Cc1cnc2c(c1)C(=O)N([C@@H](C)CO)C[C@H](C)[C@H](CN(C)Cc1ccc(-c3ccccc3)cc1)O2	-28	-12
C[C@H]1CN([C@@H](C)CO)S(=O)(=O)c2ccc(Br)cc2O[C@@H]1CN(C)C(=O)C1CCOCC1	-8	-5
C[C@H](CO)N1C[C@H](C)[C@H](CN(C)Cc2ccc(C(F)(F)F)cc2)OCCCC[C@H](C)Oc2ccc(NC(=O)c3ccncc3)cc2C1=O	?	nt
Cc1ccc(S(=O)(=O)Nc2ccc3c(c2)C(=O)N([C@H](C)CO)C[C@H](C)[C@H](CN(C)CC2CCCCC2)O3)cc1	-1	-2
CCCN1C[C@@H](C)[C@@H](OC)CN(C)C(=O)c2ccc(NS(C)(=O)=O)cc2OC[C@@H]1C	7	8
C[C@@H]1CN([C@H](C)CO)C(=O)Cc2cc(NC(=O)Nc3ccc(C(F)(F)F)cc3)ccc2O[C@@H]1CN(C)C(=O)Nc1ccccc1	-9	-1
C[C@@H]1CN([C@@H](C)CO)C(=O)Cc2cc(N(C)C)ccc2O[C@@H]1CN(C)Cc1ccc(-c2ccccc2)cc1	?	nt
CCS(=O)(=O)N1CC(=O)N2[C@H](CO)[C@@H](c3ccc(C#CCC(C)C)cc3)[C@@H]2C1	-21	-47
CCCNC(=O)N(C)C[C@H]1Oc2ncc(C#CC3CC3)cc2C(=O)N([C@@H](C)CO)C[C@@H]1C	6	13
COc1ccc(CN(C)C[C@H]2OCCCC[C@H](C)Oc3ccc(NC(=O)CCCN(C)C)cc3C(=O)N([C@H](C)CO)C[C@@H]2C)cc1	11	4
COc1cccc(CN2C[C@H]3O[C@H](CNS(=O)(=O)c4cn(C)cn4)CC[C@H]32)c1	12	10
Cc1ccccc1S(=O)(=O)NCC[C@H]1CC[C@H](NC(=O)C2CC2)[C@H](CO)O1	17	18
COc1ccc(S(=O)(=O)N(C)C[C@@H]2Oc3c(NC(=O)Nc4ccc(F)cc4)cccc3C(=O)N([C@@H](C)CO)C[C@@H]2C)cc1	?	nt
C[C@H]1CN([C@@H](C)CO)C(=O)Cc2cc(NS(C)(=O)=O)ccc2O[C@@H]1CN(C)S(=O)(=O)c1cccs1	16	14
C[C@@H]1CCCCO[C@H](CN(C)C(=O)Nc2ccc(C(F)(F)F)cc2)[C@H](C)CN([C@H](C)CO)C(=O)c2cc(N(C)C)ccc2O1	0	6

Some of the compounds tested; rates above refer to the full screens.
